PABP FP inh = PABP-poly(A) binding inhibition | P11940 | inhibition, % at 35 µM | 290,000 tested, 1% active | PABP-poly(A) RNA binding, fluorescence polarization;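 active = 50% or more with normal probe brightness, or confirmed in later tests; inconclusive = above 50% with abnormal brightness, or retests that disagree; inactive = below 50% or failed in later tests; about a fifth of its hits are not listed in these tables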;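 also: calls also rest on retests at 20 µM and on dose response follow-up; controls were probe without protein and protein plus probe with vehicle; some compounds called inactive have numbers as strong as hits; many hits fall short of the cut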
MT1-MMP act inh = inhibitors of human MT1-MMP activation. 360,000 tested, 0.061% active. HT1080 RFP-PRO-GFP cells, GFP/RFP ratio fluorescence, overnight; percent of plate control window, DMSO zero. AID 651647. GFP/RFP ratio change, % at 20 µM. P50281;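 active = GFP/RFP ratio change of at least 30% with cell ATP level not reduced by more than half and red fluorescence within 50% of control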; also: strong numbers were not always called active
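Material – HT1080 RFP-PRO-GFP cells · Control set – DMSO wells and RFP-L50D-GFP cells · Incubation – overnight cell settling, then overnight compound exposure, 37 °C, 5% CO2 · Compound dosing – single-point 20 µM compound, 1% DMSO · Read-out – GFP/RFP fluorescence ratio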
eIF4H FP inh = inhibitors of RNA binding by human eIF4H. Q15056. eIF4H fluorescence polarization binding assay. 290,000 tested, 0.94% active. inhibition, % at 35 µM. AID 2012;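 active = 50% or more with normal probe brightness, or confirmed in later tests; inconclusive = above 50% with abnormal brightness, or retests that disagree; inactive = below 50% or failed in later tests; about a fifth of its hits are not listed in these tables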;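 also: calls also rest on retests at 20 µM and on dose response follow-up; 0% = protein and probe with vehicle and 100% = probe without protein; strong numbers were not always called active; many hits fall short of the cut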
UUG fidelity = alters start codon recognition fidelity in yeast; 350,000 tested, 0.13% active; AID 602363; activity score, % at 18.7 µM; S. cerevisiae UUG-firefly luciferase reporter, luminescence/redox ratio;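 active = replicate mean at a twofold rise or more, about +100% in these data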;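 also: firefly luciferase made from a UUG start codon reports start codon fidelity; reporter light over untreated wells divided by growth signal over untreated wells; some hits fall short of that in this replicate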
Env fusion inh = HIV envelope-mediated fusion inhibition; HeLa-JRFL Env/CEM21 cell fusion, luciferase; inhibition, % at 12.3 µM; 360,000 tested, 1.1% active;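 active = mean replicate inhibition score of at least 50 and every replicate individually at or above 50; inconclusive = only one of the two criteria met; inactive = mean below 50 and not all replicates reaching 50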;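 also: 0% = plate neutral controls and 100% = maraviroc near 300 nM; one replicate is shown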
CSC inhib = cancer stem cell inhibition. inhibition, % at 7.5 µM. 300,000 tested, 1.1% active. cancer stem cell-like cells viability, luminescence;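 active = mean at 75% or more and at least half the replicates too; inconclusive = mean and replicates disagree; tested in HMLE shEcad cells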;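 also: 0% = median of negative and 100% = median of positive control wells; the first replicate is given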
Rce1 inhib = yeast Ras-converting enzyme inhibition. AID 2563. calls only. Q03530. yeast membranes, quenched prenylated peptide cleavage fluorescence. 290,000 tested, 0.27% active;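 active = fall in fluorescence gain of 50% or more versus controls, with final raw signal at or below 3038400; inconclusive = same 50% fall but final raw signal above 3038400; inactive = fall in fluorescence gain under 50%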;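 also: plate controls were neutral control wells for no effect and wells lacking membranes for full effect; tested at 10 µM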
Target sequence (Q03530 whole entry, looked up): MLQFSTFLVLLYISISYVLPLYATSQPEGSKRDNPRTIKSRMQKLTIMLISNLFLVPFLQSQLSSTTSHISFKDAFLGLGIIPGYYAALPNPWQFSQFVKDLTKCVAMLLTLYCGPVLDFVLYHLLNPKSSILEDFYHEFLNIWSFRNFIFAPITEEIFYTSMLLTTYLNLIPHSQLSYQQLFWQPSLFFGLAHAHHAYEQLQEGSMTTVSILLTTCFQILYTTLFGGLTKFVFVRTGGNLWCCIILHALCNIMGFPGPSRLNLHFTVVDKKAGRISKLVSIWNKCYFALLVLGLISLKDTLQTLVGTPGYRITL
MT1-MMP act inh RFP = also measured in MT1-MMP act inh; calls as there; RFP signal change, %; measured here: RFP expression control read;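 0 = vehicle wells; hits needed this value within 50% of zero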
The depositor's hits bear a star; i = inactive; ? = inconclusive; . = not tested or not shown. Random draw from the library (roughly 2.9% active in at least one column).

SMILES | PABP FP inh | MT1-MMP act inh | MT1-MMP act inh RFP | eIF4H FP inh | UUG fidelity | Env fusion inh | CSC inhib | Rce1 inhib
CC(=O)Oc1ccc2c(c1)c(C(C)=O)c(C)n2C | 8 | 0 | -2 | 2 | -2 | -10 | -1 | i
O=C(NCC(c1ccco1)N1CCCCC1)c1cccs1 (stereo unspecified) | . | 3 | 3 | . | -6 | 25 | . | .
CC(=O)Nc1ccc(NC(=O)CSc2ccc(-c3ccc(-n4ccnc4)cc3)nn2)cc1 | . | 1 | 1 | . | -22 | -13 | 4 | i
O=C(CSc1cccc[n+]1[O-])c1ccccc1Br | 4 | -2 | 0 | -5 | . | -12 | -9 | i
COc1ccc(CNC(=O)C/C(C)=N/NC(=O)c2cnccn2)cc1 | 0 | 2 | 5 | -2 | . | 6 | -9 | i
NNC(=O)c1cc(Cl)ccc1Cl | -3 | 0 | 3 | -2 | -13 | . | -10 | i
Cc1cccc(N2CCN(C(=O)c3cc4c(=O)n(C)c5ccccc5c4n3C)CC2)c1C | 8 | -4 | -28 | -7 | -10 | 28 | 3 | i
O=C(COC(=O)CCC(=O)c1ccc(Cl)cc1)NCCc1ccccc1 | 8 | -3 | 0 | 4 | . | 10 | 7 | i
Cc1cc(=O)oc2c(CN3CCCCC3)c(O)c(Cl)cc12 | 3 | -2 | 2 | -1 | 5 | . | -5 | ?
c1ccc(Cn2c(NCc3ccccn3)nc3ccccc32)cc1 | 4 | -2 | 4 | 4 | -26 | 5 | -6 | i
CSc1nc(Oc2ccc3ccccc3c2)c2sccc2n1 | 10 | -7 | -15 | -8 | . | . | 67 | i
O=C(NCc1ccc(N2CCCC2=O)cc1)c1cnccn1 | -8 | -5 | -1 | -10 | -17 | 10 | -14 | i
O=C(COC(=O)c1ccc2c(c1Cl)C(=O)c1ccccc1C2=O)NC1CC1 | -13 | 8 | 3 | 5 | . | 7 | -3 | i
COc1ccc(C(=O)CSc2nnc(COc3ccc(C#N)cc3)n2-c2ccccc2)cc1 | 1 | -2 | -3 | -3 | -26 | -29 | -16 | i
COc1ccc(NC(=O)C2CCN(S(=O)(=O)c3ccc(Br)s3)CC2)cc1OC | -2 | 17 | -4 | 3 | 13 | 6 | 8 | i
CCOC(=O)c1c(C)[nH]c(C)c1C(=O)CSc1nc2ccccc2n1CCC#N | 1 | -6 | -2 | 2 | 19 | -21 | -1 | i
O=C(Nc1cccc(C(F)(F)F)c1)c1ccc(N2CCNCC2)c([N+](=O)[O-])c1 | -3 | 4 | -14 | -11 | . | 20 | -16 | i
CC(C)[C@H]1CN=C2N(CCNC(=O)CCC3CCCCC3)[C@H](Cc3ccc(O)cc3)CN21 | 0 | 3 | 0 | 0 | 10 | . | 8 | i
CC1CCN(C(=O)c2ccc(NC3=C(Cl)C(=O)N(Cc4ccccc4)C3=O)cc2)CC1 | . | -6 | -6 | . | 2 | 2 | . | .
COc1ccc(-c2cc3c(=O)n(CC(=O)Nc4ccc(C(C)=O)cc4)ncn3n2)cc1 | -5 | -1 | 7 | -12 | -19 | -8 | -5 | i
Cc1ccccc1OCC(=O)Nc1ccc2oc(=O)ccc2c1 | 4 | 0 | 0 | 2 | -13 | 4 | 3 | i
CC[n+]1c(S(=O)(=O)[O-])ccc2ccc(C)cc21 | 4 | 1 | -2 | 1 | -14 | . | 0 | i
COCCCNC(=O)c1ccccc1NS(C)(=O)=O | -8 | 7 | 3 | -4 | -7 | . | -9 | i
CC(C(=O)NCCc1ccccc1)N1c2cccc3cccc(c23)S1(=O)=O (stereo unspecified) | 9 | -7 | -3 | -5 | 7 | -6 | -12 | i
COc1cc(-c2noc(C)c2C#Cc2ccc(N)cc2)cc(OC)c1OC | -9 | 29 | 7 | -11 | -15 | -335 | 108* | i
CCCn1c(O)c(C=Nc2ccccc2)sc1=S | -4 | 0 | 1 | 0 | -10 | -27 | 6 | .
CCc1c(C(=O)NCc2ccccc2Cl)[nH]c(C)c1C(C)=O | 3 | -23 | -20 | -5 | -10 | -14 | -17 | i
Fc1ccc(/C=N/Nc2cc(N3CCOCC3)ncn2)cc1 | -3 | -12 | -3 | 3 | -17 | 16 | 7 | i
COc1ccc(C2CC(=O)Oc3cc(C)cc(C)c32)cc1 (stereo unspecified) | . | 0 | 1 | . | -33 | -224 | . | .
Cn1cccc1CNC(=O)Nc1ccc(Cl)cc1 | -2 | 0 | 2 | -4 | -15 | . | 20 | i
Brc1[nH]nc2ccccc12 | -4 | -7 | -4 | -14 | -26 | -110 | 1 | i
COc1ccc(CN2CSC(=S)N(Cc3ccccc3)C2)cc1 | -1 | 3 | 1 | 4 | -20 | -6 | 14 | i
COc1cccc(CNc2nc3ccc(C)cc3n3cnnc23)c1 | -3 | -2 | 3 | -15 | -11 | -15 | -10 | i
COc1cc(OC)c(OC)cc1CNC(=O)c1cc(S(=O)(=O)N2CCOCC2)ccc1F | . | 1 | -2 | . | 3 | 4 | . | .
COc1ccc(Cl)cc1S(=O)(=O)N1CCCC1=O | -14 | 1 | 3 | -5 | . | -3 | -3 | i
Cc1ccccc1S(=O)(=O)Nc1cccnc1 | -2 | -9 | 0 | -4 | -11 | . | -8 | i
Cn1cc(C=O)c2ccccc21 | 2 | -1 | 3 | -11 | . | -27 | -7 | i
Cc1[nH]c2ccccc2c1C(=O)C(C)OC(=O)c1ccc([N+](=O)[O-])o1 (stereo unspecified) | 12 | 5 | -2 | 5 | 6 | 15 | 19 | i
Cc1cc(C)c(NC(=O)CCCn2c(=O)oc3ccccc32)c(C)c1 | . | 5 | 3 | . | -17 | 23 | -13 | .
Cn1nc(C(=O)Nc2ccc(Cl)c(S(=O)(=O)N3CCOCC3)c2)c2ccccc2c1=O | . | 9 | 4 | . | -1 | 7 | -6 | .
O=C1/C(=C/c2cccs2)SC(=S)N1c1ccccc1 | -5 | 2 | 0 | 4 | 2 | 8 | -4 | i
O=C(Nc1ccc2c(c1)OCO2)c1ccc(Cl)nc1 | 11 | 4 | 12 | -6 | . | . | -8 | i
CC1(C)CC2(CCCN(CC(O)(c3ccccc3)c3ccccc3)C2)CCO1 (stereo unspecified) | -5 | 1 | -4 | -13 | 8 | 16 | 1 | i
O=C(CCNC(=O)c1ccccc1)OCN1C(=O)c2ccccc2C1=O | 10 | 3 | 7 | 1 | 0 | . | . | i
Cc1ccc(C(c2nnnn2CC2CCCO2)N2CCN(C(=O)c3ccco3)CC2)cc1 (stereo unspecified) | -9 | 5 | 8 | 0 | 5 | . | 0 | i
NC(=S)NN=Cc1nccc2c(C(F)(F)C(F)(F)C(F)(F)F)cccc12 | . | 6 | -11 | . | -24 | -7 | . | .
Cn1cc(C2=C(c3ccc(Cl)cc3Cl)C(=O)NC2=O)c2ccccc21 | ? | -50 | 10 | ? | -15 | 13 | 41 | i
Cc1cc(C(=O)N2CCCC(Nc3ccc(C)c(C)c3)C2)nc(C)n1 (stereo unspecified) | . | -2 | 3 | . | -10 | -17 | . | .
O=C(COC(=O)c1cccc(-n2cnnn2)c1)c1ccc(Br)cc1 | . | -7 | 0 | . | -15 | -18 | -7 | i
N#Cc1cc(C(=O)c2ccccc2OCC(=O)Nc2ccccc2Cl)cn(C2CCCCC2)c1=O | 2 | -6 | -2 | 1 | . | 9 | -3 | i
Fc1ccc(-n2c(CN3CCCCC3)n[nH]c2=S)cc1 | 18 | -3 | -3 | -3 | . | 15 | 13 | i
COc1ccc(C2C(C#N)=C(N)Oc3cc(C)[nH]c(=O)c32)c(OC)c1OC (stereo unspecified) | 4 | -1 | 6 | -6 | -5 | . | . | i
Cc1ccc(NCC(=O)Nc2cccc(F)c2)cc1S(=O)(=O)N1CCCCCC1 | 0 | -5 | -22 | -7 | 12 | . | -11 | i
Clc1ccc(-c2nc(-c3cc4cc(Cl)ccc4o3)cs2)cc1 | -10 | 0 | 2 | -2 | -2 | 23 | -13 | i
O=C(O)C1=C[C@@H](C2CC2)C[C@@H](OCc2ccc(CO)cc2)O1 | -1 | 4 | 5 | -2 | -19 | 4 | 3 | i
O=C(c1cccnc1)N1CCN(S(=O)(=O)c2ccc(F)cc2)CC1 | 7 | -1 | 1 | 2 | . | 10 | -8 | i
COc1cc(CN2CCC(n3nccc3NC(=O)C3CC3)CC2)cc(OC)c1 | 2 | -1 | -2 | -3 | 3 | 4 | -7 | i
COc1ccc(S(=O)(=O)N2CCC(C(=O)NCCC(=O)NCc3ccccc3OC)CC2)cc1 | 1 | 0 | 3 | 9 | -6 | 0 | -5 | i
COc1ccc(CCNC(=O)CCS(=O)(=O)c2ccc(Br)cc2)cc1OC | 12 | 3 | 5 | 2 | . | 3 | -12 | i
C/C(Cl)=C/Cn1c(SCC(C)C)nc2c1c(=O)[nH]c(=O)n2C | 2 | 1 | -12 | 0 | -17 | . | 3 | i

Continuation.
SMILES | PABP FP inh | MT1-MMP act inh | MT1-MMP act inh RFP | eIF4H FP inh | UUG fidelity | Env fusion inh | CSC inhib | Rce1 inhib
O=S1(=O)N=C(N2CCCC2)c2ccccc21 | 2 | 2 | 2 | -3 | -13 | 20 | 1 | i
COCCCNC(=O)CN(c1ccc(OC)cc1)S(=O)(=O)c1ccc(NC(C)=O)cc1 | -1 | 3 | 9 | -1 | -7 | -14 | -6 | i
Cc1ccc2nc(CCCc3nc4ccc(C)cc4[nH]3)[nH]c2c1 | -4 | 14 | 8 | 8 | -7 | 6 | . | i
COc1ccc(NC(=O)C/C(C)=N/NC(=O)c2ccco2)c([N+](=O)[O-])c1 | 10 | 2 | 3 | -24 | -16 | 10 | -5 | i
CC(=O)c1ccc(O)c(CC=C(C)C)c1O | . | 10 | 5 | . | -7 | . | 2 | i
CCN(C(=O)CN(C)Cc1cccc(Cl)c1Cl)c1c(N)n(Cc2ccccc2)c(=O)[nH]c1=O | -4 | -2 | -1 | -3 | 1 | -51 | -1 | i
O=C(O)c1ccc(CSC2CCCCC2)cc1 | 7 | -2 | -1 | -4 | -15 | 24 | -5 | i
CCCCNC(=O)CC1N=C2c3ccccc3N=C(SCC(=O)Nc3ccccc3OC)N2C1=O (stereo unspecified) | -7 | -4 | -4 | -8 | -9 | -40 | -20 | i
c1ccc(Oc2ccc(-n3cnnn3)cc2)cc1 | 4 | 3 | 1 | 0 | . | . | 6 | i
CC1(c2ccc(Cl)cc2)NC(=O)N(CC(=O)c2ccc3c(c2)OCO3)C1=O (stereo unspecified) | -4 | -1 | 2 | -2 | 10 | -25 | -4 | i
Cc1cccc(Nc2ncnc3c2cnn3Cc2ccccc2)c1 | 4 | 0 | -3 | -6 | . | 3 | 37 | i
O=C(c1ccc(OC2CCN(Cc3ccccc3O)CC2)cc1)N1CCCCC1 | -5 | 0 | -3 | -3 | -34 | -52 | 0 | i
O=C(COc1ccccc1)Nc1nc(-c2ccc(S(=O)(=O)N3CCOCC3)cc2)cs1 | 26 | 10 | -12 | -6 | -4 | . | 9 | i
N=c1n(CC(=O)c2cccs2)c2ccccc2n1Cc1ccccc1 | 1 | 1 | -5 | 3 | . | 18 | -4 | i
Cc1ccc(S(=O)(=O)N(Cc2nccn2C)C(C)C)cc1 | 0 | 1 | 2 | -8 | -18 | -11 | 1 | i
N#CCC(=O)Nc1nc(-c2ccc3c(c2)OCCO3)cs1 | 6 | -5 | -2 | 4 | . | -23 | -9 | i

Screening results (PubChem)
